Screening data (PubChem BioAssay)
PINK1 expr mod – modulators of PINK1 expression; PINK1 immunofluorescence, high-content cytometry, 24 h; Potency, µM (top dose mostly 76.6 µM), for inactives: at the top dose activation (PINK1 increase), actives largely listed as activators; actives 0.2% (n = 410,000); active = well fitted activation curve with a large enough effect; inconclusive = small, poorly fitted or top-dose-only effect; inactive = flat fitted curve, though single readings scatter; cell line not stated here;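 also: potency is read from the fitted curve at half-maximal effect; % of control where 0% means no effect; nearly all actives have a fitted effect of over 65% in size; a mitochondrial uncoupler was the plate control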
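Decision-based qHTS: stable cells, 24 h exposure to five compound concentrations, CCCP as control. Fixed cells stained for PINK1 plus nuclear, mitochondrial and cell markers, cytometer read.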
Menin-MLL FL inh – displaces fluorescein MLL peptide from human menin. Fluorescence polarization, fluorescein-MLL peptide displacement from menin. FP activity change, % at 61.4 µM. 290,000 tested, under 10 active; inconclusive = falling polarisation curve, or a change in total fluorescence; inactive = total fluorescence flat and polarisation flat or rising; no compound was filed as active; the % refers to the polarisation; negative = inhibition;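 also: % of control where 0% means no effect; inhibitors lower the polarisation; unlabelled MLL peptide was the positive control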
Sfp inh – Sfp phosphopantetheinyl transferase inhibition | Biochemical Sfp PPTase activity, qHTS | actives 3.5% (n = 310,000) | Potency, µM, for the others: max response, negative = inhibition, usual class: inhibitors; active = well fitted inhibition curve with a large enough effect; inconclusive = small, poorly fitted or top-dose-only effect, or another doubt; inactive = no such curve, though single readings can be large or run the other way;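 also: the enzyme is Sfp with the accession as filed and its product quenches rhodamine fluorescence; potency is read from the fitted curve at half-maximal effect; 0% = enzyme reaction without inhibitor and -100% = no enzyme wells; top concentration of the series not given in the record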
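Step 1, compound plus 15 nM Sfp-PPTase, 15 min, room temperature. Step 2, add rhodamine-CoA (5 uM) and BHQ-2-YbbR (12.5 uM). Step 3, read 525/598 nm fluorescence at 0 and 30 min.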
TRPML1 agonist – human mucolipin-1 channel agonism. AID 624414. TRPML1-expressing cells, Ca2+ dye fluorescence, FDSS; host cell line not named in the record; reference of the full effect not given here. actives 0.12% (n = 410,000). activation, % (no concentration beside the values). Q9GZU1; in the data active = activation above about 50%; inconclusive = about 30% to 50%; inactive = below about 30%; also: 0% is about no effect; the text of the record puts the active cut at 80%
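In this qHTS format, compounds were pin-transferred onto Ca8-dye-loaded TRPML1-DL cells induced with Tet overnight, and intracellular Ca2+ fluorescence was recorded kinetically for 110 s after a 10 s baseline. A subsequent 4uM final 54-4 (EC80) addition followed by a second 110 s read served as the antagonist phase.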
ClpP mod – qHTS Assay for Activators of ClpP; ATP-dependent Clp protease proteolytic subunit (Bacillus subtilis (strain 168)), P80244; purified B. subtilis ClpP, FRET peptide cleavage, 20 min; Potency, µM (highest dose often 57.5 µM), for the others: at the highest dose activity change, negative = active; actives 1.9% (n = 340,000); active = well fitted falling curve with a large enough effect; inconclusive = small, poorly fitted or top-dose-only effect; inactive = no such curve, though single readings can be large or run the other way; also: potency is read from the fitted curve at half-maximal effect; the source files actives as falling curves though it sought activators and does not explain the sign; nearly all actives have a fitted effect of over 65% in size; many hits overshoot -100%
Target sequence (P80244 whole entry, looked up): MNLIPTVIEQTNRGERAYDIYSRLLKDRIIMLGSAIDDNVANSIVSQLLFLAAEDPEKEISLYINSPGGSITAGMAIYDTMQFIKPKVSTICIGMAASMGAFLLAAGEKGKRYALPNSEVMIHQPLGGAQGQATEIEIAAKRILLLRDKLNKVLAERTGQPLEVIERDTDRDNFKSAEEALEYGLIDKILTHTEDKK
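ClpP 10 microg/mL final, pH 8 Tris/KCl buffer with BSA, glycerol, Tween-20; compound pinned in; FRET-FV substrate; RT 20 min; Ex320/Em430; ΔFRET vs ADEP 5.8 microM, DMSO, no enzyme.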
TRPML1 blocker – blocks the human TRPML1 channel. Q9GZU1. TRPML1-inducible cells, Ca2+ dye fluorescence, FDSS; stronger effect = lower value; inhibition of EC80 agonist-evoked calcium signal. activity change, negative = inhibition, % (no concentration beside the values). actives 0.02% (n = 390,000); in the data active means activity change below about -50%; inconclusive means about -30% to -50%; inactive means above about -30%;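 also: stimulus is agonist 54-4 at its EC80 concentration; % is scaled to controls: 0 for no effect and ±100 for the full control effect; compound concentration not given in the record; the text of the record puts the active cut at -80%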
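Calcium fluorescence in TRPML1-DL cells induced overnight with Tet: a 110 s read after compound pin addition, then a 110 s antagonist read after challenge with 54-4 at 4 uM final (EC80).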
TRPV1 PAM – potentiators of human vanilloid receptor 1 (TRPV1); potentiation, % at 8.33 µM; TRPV1-expressing cells, Fluo-8 calcium influx, capsaicin EC20 potentiation; host cell line not named in the record; control for the full effect not named in the record; Q8NER1; actives 0.02% (n = 320,000); active means potentiation above 80%; inconclusive means 30% to 80%; inactive means below 30%; also: 0% is about no effect
Target sequence (Q8NER1 whole entry, looked up): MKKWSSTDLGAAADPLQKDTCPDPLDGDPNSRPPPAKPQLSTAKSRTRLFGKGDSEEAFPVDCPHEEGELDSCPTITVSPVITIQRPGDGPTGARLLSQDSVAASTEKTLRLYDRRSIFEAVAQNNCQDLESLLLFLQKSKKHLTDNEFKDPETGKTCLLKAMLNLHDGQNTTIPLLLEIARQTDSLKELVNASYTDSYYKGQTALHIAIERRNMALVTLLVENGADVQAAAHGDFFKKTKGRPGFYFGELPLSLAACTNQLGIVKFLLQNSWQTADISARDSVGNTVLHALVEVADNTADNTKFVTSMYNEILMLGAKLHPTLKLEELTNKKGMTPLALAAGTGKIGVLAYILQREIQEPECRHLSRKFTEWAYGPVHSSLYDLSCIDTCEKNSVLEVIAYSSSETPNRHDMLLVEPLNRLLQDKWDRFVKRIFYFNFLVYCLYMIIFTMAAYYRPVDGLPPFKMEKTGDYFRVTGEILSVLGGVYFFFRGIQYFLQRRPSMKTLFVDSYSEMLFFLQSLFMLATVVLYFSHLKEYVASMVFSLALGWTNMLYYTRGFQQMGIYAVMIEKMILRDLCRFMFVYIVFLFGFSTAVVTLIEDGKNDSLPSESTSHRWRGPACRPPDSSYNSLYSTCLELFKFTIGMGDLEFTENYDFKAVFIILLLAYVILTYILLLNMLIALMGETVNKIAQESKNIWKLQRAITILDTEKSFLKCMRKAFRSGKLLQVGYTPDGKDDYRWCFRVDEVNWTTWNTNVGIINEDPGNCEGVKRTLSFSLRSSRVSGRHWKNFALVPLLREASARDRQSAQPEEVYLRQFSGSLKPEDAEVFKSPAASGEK
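Cells expressing TRPV1 were dye-loaded with Fluo-8 and read kinetically: 10 s baseline, 3 min after compound (agonist portion), then 2 min after EC20 capsaicin (allosteric enhancer portion). Calcium-bound dye fluorescence at 480/520 nm.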
* marks the source's active call; other numbers are inactive results; ? = inconclusive; nt = no result given; & = joins results of further samples; [ ] = dose if it differs, or a comment.

SMILES	PINK1 expr mod	Menin-MLL FL inh	Sfp inh	TRPML1 agonist	ClpP mod	TRPML1 blocker	TRPV1 PAM
CCn1c(O)c(N=NC(=O)C2C(=O)NCC2c2ccccc2)c2ccccc21 (stereo not drawn)	-1.3%	-1.7	20%	0.0	-1.0%	-3	-3
CCCOc1ccc(-c2c(C(=O)N/N=C/c3ccc(C)cc3)nnn2-c2nonc2N)cc1	6.0%	1.9	27%	0.4	nt	13	7
CCOc1ccc(C(=O)Nc2ccc(S(=O)(=O)Nc3cc(C)on3)cc2)cc1	-0.1%	2.8	14%	-1.1	-1.3%	-2	3
O=C(CN1c2ccccc2S(=O)(=O)c2ccccc21)Nc1ccccc1F	0.6%	nt	-1%	2.4	nt	-5	14
Cn1c(SCC(=O)NC(=O)Nc2ccccc2)nnc1-c1ccncc1	-0.8%	-0.7	18%	1.3	nt	-13	4
O=C(Cc1ccccc1)Nc1ccc(NC(=O)c2ccc(Br)cc2)cc1	2.4%	-1.9	-3%	-1.2	-1.1%	-9	6
CCOC(=O)c1[nH]c(C)c(C(=O)N2CCN(C(=O)c3ccco3)CC2)c1C	-3.4%[38.3 µM]	0.9	13%	0.2	-2.9%	3	3
CC(C)CN(C(=O)C1CCCO1)C1CCS(=O)(=O)C1 (stereo not drawn)	2.5%	nt	nt	0.6	nt	5	-7
Cc1ccc(Nc2nnc(-c3ccncc3)s2)c(Br)c1	4.9%	-2.6	1%	0.2	6.1%	1	-13
Cc1cc(C(=O)NCc2ccccc2Cl)n(-c2ccccc2)n1	-0.2%	1.9	13%	0.7	0.2%	10	16
CCOC(=O)c1cc2c(C(F)(F)F)cc(-c3cccnc3)nc2o1	-1.4%	0.4	9%	-0.2	-5.8%	4	1
COc1cccc(OCCSc2nc(C)c(Cc3ccccc3)c(=O)[nH]2)c1	10%&-0.1%	-2.2	11%	0.2&1.0	-0.6%	-6&8	9
O=C(N/N=C/c1cccs1)c1n[nH]c2c1CCCC2	6.5%	3.2	2%	-0.3	0.3%	6	-17
Cc1cccc(-n2c(Cc3ccccc3)nnc2SCC(=O)N2CCOCC2)c1	-1.0%	2.5	-8%	0.6	-3.9%	34	3
COc1cc(/C=N/NC(=O)c2cccc(NC(=O)c3ccccc3)c2)ccc1O	-0.5%	11	5%	-0.4	nt	-13	14
N#C/C(=C/c1ccc(N2CCCCCC2)o1)c1ccc(F)cc1	21%	nt	nt	1.3	32µM*	18	nt
Cc1nn(-c2cccc3cccnc23)c(=O)c2ccccc12	-0.9%	0.0	-1%	0.9	-4.7%	-5	-8
O=C(COC(=O)c1cc(Br)ccc1O)NCCC1=CCCCC1	8.9%	nt	nt	-1.1	1.1%	-6	nt
CN(C)/C=C/C1=C([N+](=O)[O-])C(c2cccc([N+](=O)[O-])c2)NC(=O)N1 (stereo not drawn)	2.2%	6.6	2%	0.7	nt	6	-6
COc1ccccc1C(=O)Nc1ccnn1C1CCN(Cc2ccccc2OCCO)CC1	0.1%	-9.8	4%	0.5	-0.4%	-6	-6
CCOc1ccc(-c2nc(SCC(=O)NCCOC)c(-c3ccc(OC)c(OC)c3)[nH]2)cc1	-1.5%	nt	nt	-1.1	-29%	18	nt
Cn1c(SCC(=O)C(C)(C)C)nnc1-c1ccccn1	nt	1.2	-6%	0.6	-1.4%	-13	-4
Cc1ccc(NC(=O)C2CC(=O)N/C(=N/N=C/c3ccco3)S2)cc1 (stereo not drawn)	4.5%	3.9	-14%	-0.2	1.0%	18	2
CCC[C@H](CN[C@@H](CNC)[C@H](C)CC)NCCc1cc(C(F)(F)F)cc(C(F)(F)F)c1	-1.1%	2.1	20%	-0.3	0.6%	11	10
COc1ccc(C2=CC(c3cccc(OC)c3)n3nnnc3N2)cc1 (stereo not drawn)	0.0%	-2.3	-7%	6.0	nt	16	4

Next part, starting with the last 3 of the part before.
SMILES	PINK1 expr mod	Menin-MLL FL inh	Sfp inh	TRPML1 agonist	ClpP mod	TRPML1 blocker	TRPV1 PAM
Cc1ccc(NC(=O)C2CC(=O)N/C(=N/N=C/c3ccco3)S2)cc1 (stereo not drawn)	4.5%	3.9	-14%	-0.2	1.0%	18	2
CCC[C@H](CN[C@@H](CNC)[C@H](C)CC)NCCc1cc(C(F)(F)F)cc(C(F)(F)F)c1	-1.1%	2.1	20%	-0.3	0.6%	11	10
COc1ccc(C2=CC(c3cccc(OC)c3)n3nnnc3N2)cc1 (stereo not drawn)	0.0%	-2.3	-7%	6.0	nt	16	4
COc1ccc(NC(=O)CCCNC(=O)Cn2cnc3sc(C)c(C)c3c2=O)cc1Cl	-1.8%	-6.7	-11%	-0.2	nt	-6	-1
COCCN1C=C(C(=O)OC)C(c2ccccc2Cl)C(C(=O)OC)=C1	5.9%	-0.1	18%	2.3	-6.1%	5	23
COc1ccc(CCNC(=O)C(=O)NCC(c2ccco2)S(=O)(=O)c2ccccc2)cc1 (stereo not drawn)	6.9%	nt	nt	2.1	2.1%	-7	nt
Cc1cc(O)c(-c2ccno2)cc1Cl	-1.3%	5.7	15%	2.7	-7.3%	-12	-3
O=C(O)C(c1ccccc1)N1C(=O)/C(=C\c2ccc(-c3ccc(Br)cc3)o2)SC1=S (stereo not drawn)	-0.4%	?	-23%	3.7	-0.2%	-3	-13
O=C(COC(=O)c1cc([N+](=O)[O-])ccc1N1CCOCC1)c1ccccc1Cl	2.3%	nt	9%	1.0	-1.0%	-5	-9
O=C(Nc1cccc(F)c1)N1CCC2(CCNCC2)CC1	-1.2%	-0.5	12%	nt	nt	nt	nt
CCOc1ccc(OCC)c(NC(=O)C(NS(=O)(=O)c2ccc(Br)s2)c2ccccc2)c1 (stereo not drawn)	4.8%	nt	nt	4.4	-2.3%	-1	nt
CC(C)(C)c1ccc(C(=O)N2CCCCC2CCN2CCCCC2)cc1 (stereo not drawn)	0.0%	nt	nt	0.2	-1.4%	-2	nt
O=C(Nc1ccc(S(=O)(=O)Nc2nccs2)cc1)C1CC(=O)N(c2ccc(Cl)cc2)C1 (stereo not drawn)	0.3%	nt	18%	0.0	nt	1	1
COc1ccc2o/c(=N\O)c(C(=O)Nc3ccccc3OC)cc2c1	-1.0%	1.7	50µM*	-0.5	-2.9%	-2	-9
CCc1cccc(CC)c1N(COC)C(=O)Cn1c(C)nc2ccccc21	-0.1%	nt	nt	-0.4	4.5%	0	nt
Cc1cc(C)c2ccc(=O)n(CC(=O)N/N=C/c3ccccc3Cl)c2n1	1.0%	-1.9	-5%	-0.9	nt	17	-14
CCOC(=O)n1c(=O)n(Cc2ccc(Cl)cc2Cl)c2ccccc21	4.8%	2.4	-3%	4.2	0.8%	-5	10
Cc1c(N=C2NN=C(c3ccc(Cl)cc3)CS2)c(=O)n(-c2ccccc2)n1C	-0.1%	3.0	50µM*	1.5	nt	-3	-6
CCc1ccc(NC(=O)c2cc(S(=O)(=O)N3CCCC(C)C3)cn2C)cc1 (stereo not drawn)	0.7%	nt	nt	1.2	2.6%	-3	nt
O=C(COc1ccccc1)Nc1ccc(Cl)cn1	0.4%	-1.3	1%	0.8	nt	1	-28
CCOC(=O)c1c(NC(=O)c2cc(=O)c3ccc(C)cc3o2)sc(C)c1C	6.8%	nt	nt	1.1	-3.4%	-9	nt
CN(C)CCCNC(=O)c1cc(C(=O)c2ccccc2F)c[nH]1	-1.0%	0.4	18%	-0.1	3.5%	10	11
C[C@@H]1CN([C@H](C)CO)C(=O)CCCn2nncc2CO[C@H]1CN(C)C	-0.3%	nt	nt	-0.5	0.9%	30	nt
O=C1CS(=O)(=O)c2ccccc2N1	0.3%	-7.8	2%	0.6	-2.6%	-1	7
O=C(/C=C/c1cn(-c2ccccc2)nc1-c1cccc(Cl)c1)N1CCN(c2ccccn2)CC1	1.5%	4.1	6%	-0.3	nt	9	-2
O=C(CSc1ccc2nnc(-c3ccccn3)n2n1)NCc1ccc2c(c1)OCO2	0.3%	0.9	16%	-0.7	0.9%	-2	10
CC(=O)N1c2ccc(S(=O)(=O)N3CCCCCC3)cc2CC1C(=O)NCc1cccc(F)c1 (stereo not drawn)	4.6%	nt	nt	-0.2	1.0%	12	nt
O=C(NCc1cccc(Cl)c1)C1CCC(=O)N(CCCN2CCCC2=O)C1 (stereo not drawn)	2.8%	3.7	11%	-0.1	-0.2%	15	14
SMILES	PINK1 expr mod	Menin-MLL FL inh	Sfp inh	TRPML1 agonist	ClpP mod	TRPML1 blocker	TRPV1 PAM
CC(C)CN(CC(C)C)c1nnc(NC(=O)Cn2c(=O)oc3ccccc32)s1	1.2%	1.0	7%	-0.3	0.3%	14	-5
Cc1ccc2nc(Nc3ccc(Br)cc3)nc(-c3ccccc3)c2c1	1.0%	nt	nt	0.0	-0.4%	19	nt
CCNc1ncc2nc(C)c(=O)n(-c3ccc(OC)cc3)c2n1	-0.2%	0.6	24%	nt	nt	nt	nt
Cc1cc(N2CCOCC2)ccc1/C=C1\NC(=O)N(Cc2ccccc2F)C1=O	19%	10	18%	0.8	-0.7%	-6	10
Cn1c(=O)c2c(-c3ccccc3)n(-c3cc([N+](=O)[O-])ccc3O)cc2n(C)c1=O	-0.1%	nt	nt	-0.5	1.0%	-2	nt
CCN(C(=O)N1CCOCC1)c1ccccc1	-0.4%	2.5	13%	0.7	0.6%	-4	5
Cc1ccc(C)c(-c2ccc(=O)n(Cc3c(F)cccc3Cl)n2)c1	13%&-0.2%	4.5	-18%	3.4	0.3%&-3.0%	57	-6
Clc1ccc(C=NN2CCCCCC2)cc1Cl	23%	nt	nt	0.8	2.3%	9	nt
O=C(NCCCNC(=O)c1ccco1)c1ccc(Cl)c(Cl)c1	0.7%	2.7	-3%	-0.3	nt	-6	-3
CC(C)(C)NC(=O)C1c2ccccc2OCC(=O)N1Cc1ccccn1 (stereo not drawn)	0.1%	nt	nt	-0.5	-30%	nt	nt
CC(=O)c1c(C)[nH]c(C(=O)OCC(=O)Nc2sc3c(c2C#N)CCC(C)C3)c1C (stereo not drawn)	7.0%	-0.5	10%	0.6	nt	-7	-1
O=C(NCc1cccnc1)C1COc2ccccc2O1 (stereo not drawn)	0.8%	5.5	13%	-0.3	1.3%	14	9
O=C(Cn1c(=O)n(-c2ccc(Cl)cc2)c(=O)c2oc3ccccc3c21)Nc1ccccc1	1.2%	nt	nt	2.4	?	-7	nt
O=c1[nH]c2cc(Cl)c(Cl)cc2o1	-0.1%	nt	nt	-0.3	-9.9%	-7	nt
